AF4-AF9 inh – MLL-AF4/AF9 protein interaction inhibition; AlphaScreen, biotin-AF4 peptide binding to FLAG-AF9; inhibition, % at 10 µM; 0.47% of 350,000 active; AID 651704;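 active means every replicate reaching a set inhibition limit, whatever the replicate mean, cut at about 25% in these data; inconclusive means mean inhibition reaches that limit but some replicates miss it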;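 further: 0% = plate neutral control median and 100% = total signal loss; the record names both 10 and 1 µM as test concentration; the first replicate is given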
Target sequence (P42568 whole entry, looked up): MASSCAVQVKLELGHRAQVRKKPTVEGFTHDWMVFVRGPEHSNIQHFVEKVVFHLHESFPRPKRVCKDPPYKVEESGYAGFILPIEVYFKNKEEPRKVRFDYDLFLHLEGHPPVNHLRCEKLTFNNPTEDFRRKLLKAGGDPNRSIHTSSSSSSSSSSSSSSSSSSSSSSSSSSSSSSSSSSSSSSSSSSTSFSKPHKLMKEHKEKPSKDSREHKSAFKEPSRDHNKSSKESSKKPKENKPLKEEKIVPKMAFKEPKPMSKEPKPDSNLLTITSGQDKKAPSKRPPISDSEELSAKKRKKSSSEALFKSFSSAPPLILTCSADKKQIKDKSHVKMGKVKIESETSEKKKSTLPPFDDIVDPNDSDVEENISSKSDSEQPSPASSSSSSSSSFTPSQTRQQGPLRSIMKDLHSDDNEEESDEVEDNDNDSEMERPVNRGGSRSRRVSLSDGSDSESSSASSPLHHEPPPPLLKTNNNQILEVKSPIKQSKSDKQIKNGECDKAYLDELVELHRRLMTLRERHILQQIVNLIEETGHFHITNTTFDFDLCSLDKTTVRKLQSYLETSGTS
Vif TR-FRET – inhibitors of Vif binding to APOBEC3G peptide, primary screen, biochemical, TR-FRET, GST-Vif 1-94, biotin-A3G peptide, dose response retest (AID 1117319); TR-FRET GST-Vif / biotin-A3G peptide binding; higher % means a stronger effect; test concentration not given here; strong numbers were not always called active; inhibition, %, or IC50 in µM where a hit was titrated; 0.57% of 260,000 active;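 active means above the screen mean plus three standard deviations and confirmed in dose response; inconclusive means results disagree or hit not tested in dose response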;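 further: Vif residues 1-94 fused to GST binding biotinylated APOBEC3G peptide 110-148; 0% = full assay without inhibitor and 100% = GST in place of GST-Vif; retest series ran down from 100 µM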
Ecoli rRNA inh – selective bacterial rRNA inhibition in E. coli; E. coli WT GFP vs humanized-ribosome RFP mutants, fluorescence, 24 h; stronger effect = lower value; DMSO median 0, no signal -100; GFP signal change (wild-type ribosome), % (test concentration not listed); 1.6% of 350,000 active;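 active means significant combined selectivity score with lowered wild-type GFP, culture density cut under 30%, mutant RFP and density less affected; inactive means any of these conditions unmet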; further: one replicate is shown; some compounds called inactive have numbers as strong as hits
T cruzi inh – T. cruzi replication inhibition; T. cruzi beta-gal in NIH3T3, luminescence, 90 h; inhibition, % (no concentration beside the values); 1.4% of 300,000 active;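 active means mean inhibition across valid replicates above about 55%, limit read from the data; inconclusive means mean below that limit but half or more replicates reach it; inactive means mean below it, under half of replicates reach it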;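 further: signal also drops with host cell toxicity which is not excluded here; 0% = plate median of DMSO wells and 100% = zero luminescence signal; higher percent means less beta-gal luminescence so fewer parasites; stock transfer was 50 nL into about 50 µL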
Beta apoptosis – beta cell apoptosis inhibition; INS-1E cytokine-induced death, ATP luminescence, 48 h; percent of positive-control rescue, neutral wells zero; protection from apoptosis, % (concentration not given with the values); 0.8% of 300,000 active;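 active means all replicates at 75% or more, or half of them and the mean; inconclusive means half reach 75% but not the mean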;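 further: 0% = cytokine-treated negative control wells and 100% = positive control rescue; higher means more ATP so stronger rescue from cytokine killing; wells of about 40 µL received 100 nL stock; the first replicate is given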
Calb FLC – C. albicans growth modulation with fluconazole; C. albicans CaCi-2 (fluconazole-resistant clinical isolate) + fluconazole, Alamar Blue growth, 48 h; growth inhibition, % (no concentration beside the values); 0.57% of 300,000 active; AID 1979;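 active means most replicates above 75%; inconclusive means exactly half above 75%; inactive means most below 75%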;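 further: all wells also contain fluconazole at 8 µg/ml as a sub-toxic cotreatment; 0% = median of DMSO wells and 100% = median of geldanamycin control wells; wells of about 8 µL received 7.5 nL stock; the first replicate is given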
RanGTP-Imp inh – disruptors of Ran-importin-beta complex formation – biochemical, FRET, CFP-Ran, YFP-importin-beta, homogeneous, primary screen; cell-free CFP-Ran/YFP-importin-beta FRET ratio; inhibition, % (test concentration not listed); 1.1% of 300,000 active; AID 2216;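 active means most replicates above 15%; inconclusive means exactly half above 15%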;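 further: 0% = DMSO wells and 100% = Ran loaded with GDP instead of GTP; wells of about 40 µL received 100 nL stock; the first replicate is given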
A1 inh – inhibitors of the anti-apoptotic protein A1, read as caspase activation. MEF A1-2A-BIM cells, Caspase-Glo 3/7 luminescence, 3 h; percent of clofoctol response, vehicle zero. AID 2462. caspase activation, % (concentration not given with the values). 0.066% of 330,000 active;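 active means over half of replicate activation scores above 10%, or exactly half above 10 with the replicate mean above 10; inconclusive means replicate mean below 10 yet half the replicates above 10; inactive means over half of replicates below 10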;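 further: wells of about 30 µL received 50 nL stock; many hits fall short of the cut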
Ecoli rRNA inh OD600 – second read-out of Ecoli rRNA inh, no call of its own (marks repeat the call); OD600 change, %; measured here: OD600 growth;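 optical density of the mix in the first replicate; 0 = DMSO median and -100 = no signal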
Ecoli rRNA inh RFP – further read-out of Ecoli rRNA inh, marked with its call; RFP signal change, %; measured here: RFP humanized mutant strains;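 first replicate; 0 = DMSO median and -100 = no signal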
Numbers without * were called inactive; ? = inconclusive; . = not tested or not shown. An excerpt (hit frequency here may not be typical).

Every second line gives: AF4-AF9 inh	Vif TR-FRET	Ecoli rRNA inh	Ecoli rRNA inh OD600	Ecoli rRNA inh RFP	T cruzi inh	Beta apoptosis	Calb FLC	RanGTP-Imp inh	A1 inh
#1 Cc1ccc(S(=O)(=O)NCC(=O)N(CC(=O)NC(C)(C)C)Cc2cccs2)cc1
  .	-2%	.	.	.	-4	-2	-8	-1.3	-1.6
#2 COc1ccc2nc(N3CCCC3)[nH]c2c1
  .	5%	.	.	.	-8	-1	-6	-2.6	2.0
#3 CCOC(=O)N1CCC(N(CCOC)C(=O)Nc2ccc(Cl)c(Cl)c2)CC1
  .	-1%	.	.	.	43	-1	2	7.5	-1.3
#4 CCOC(=O)C1CCN(C(=O)CCc2nnc3ccc(N4CCC(C)CC4)nn23)CC1
  -8.8	-2%	-7	-4	-2.0	-22	1	12	2.0	1.0
#5 Cc1ccc(C)c(Nc2ncccc2C(=O)NCc2cccs2)c1
  -2.6	-2%	-42	-69	-17	2	-7	-2	1.2	0.4
#6 CSc1oc(-c2cccs2)nc1S(=O)(=O)c1ccccc1
  -16	2%	-10	8	13	5	-6	-5	-1.4	-0.3
#7 CCc1ccc(CNC(=O)c2ccc(OC3CCN(C(C)=O)CC3)c(OC)c2)nc1
  -2.0	.	3	1	-0.2	-28	-4	-18	2.8	0.4
#8 CCn1c(NC(=O)c2cccs2)c(-c2cccs2)c(=O)c2ccccc21
  .	-5%	.	.	.	0	-1	5	-0.3	1.2
#9 Cc1cc2nnc(SC(C)C#N)n2c2ccccc12 (stereo unspecified)
  .	?	.	.	.	3	-2	-1	3.3	-0.1
#10 N/C(CN1CCCCC1)=N\S(=O)(=O)c1cc(Cl)cc(Cl)c1
  -16	5%	1	-14	2.4	15	8	-9	4.0	0.3
#11 CC(C)(C)c1ccc(C(=O)Nc2cccc3c(=O)[nH][nH]c(=O)c23)cc1
  .	4%	.	.	.	7	-1	-23	39*	0.3
#12 CCNc1oc(COc2cccc(C)c2)nc1C#N
  .	13%	.	.	.	4	4	1	2.2	-2.0
#13 COc1cc(-c2[nH]ncc2CN2CCCC2c2nonc2C)cc(OC)c1OC (stereo unspecified)
  0.1	.	7	3	-1.2	8	-3	28	-2.5	0.2
#14 COc1ccc(C2CC(C(F)(F)F)n3nc(C(=O)NCCN4CCOCC4)cc3N2)cc1 (stereo unspecified)
  .	-1%	.	.	.	-6	-8	?	-1.2	0.0
#15 COc1ccc(C(C#N)N2N=C(C)CC2(C)C)cc1 (stereo unspecified)
  .	7%	.	.	.	-16	-5	-6	-5.5	0.5
#16 c1coc(CNc2nc(-c3ccncc3)cs2)c1
  .	28%	.	.	.	4	-11	0	0.2	-3.4
#17 COc1ccccc1N1CCN(C(C)C(=O)N2CC(C)OC(C)C2)CC1 (stereo unspecified)
  4.3	-1%	4	-3	-2.7	3	-3	-4	3.2	0.5
#18 CCc1noc(C)c1C(=O)N1CCOCC1
  .	20%	.	.	.	-18	-6	9	9.4	0.7
#19 CCCOc1ccc(/C=N/NC(=O)C(C)Sc2ccccn2)cc1OCC (stereo unspecified)
  .	.	.	.	.	12	-4	-10	4.0	-0.5
#20 Cc1cccc(CC(=O)Nc2cc(=O)n(C)c(=O)n2C)c1
  0.2	-3%	0	2	-4.5	-5	1	-5	-2.6	0.0
#21 COCCn1nnnc1CN(Cc1cc2cc(OC)c(OC)cc2[nH]c1=O)C1CCCC1
  .	20%	.	.	.	?	-1	5	-46	0.2
#22 CCN(CC(=O)Nc1ccc2c(c1)OCCO2)C(=O)CCc1ccccc1Cl
  -11	?	-8	-22	3.4	.	-5	.	.	0.3
#23 CSCCC(NC(=O)COc1ccccc1)C(=O)N(C)CC(=O)Nc1ccc(C)cc1 (stereo unspecified)
  1.5	?	-4	-8	-2.0	.	0	.	.	0.4
#24 O=C(Nc1ccccc1N1CCCC1)c1ccc([N+](=O)[O-])o1
  17	5%	-10	-5	-3.9	62*	-17	-2	4.7	0.4
#25 Cc1ccc(Oc2ccccc2NC(=O)CSCC(=O)Nc2cc(C)on2)cc1
  4.5	0%	-4	-29	2.5	-7	.	?	4.6	0.5
#26 NC(=O)CSc1nc2cc(S(=O)(=O)N3CCOCC3)ccc2o1
  -78	-4%	14	14	1.7	.	0	.	.	0.4
#27 Cc1cccc(C(C)C)c1NC(=O)COC(=O)C1CC(=O)N(Cc2ccccc2)C1 (stereo unspecified)
  5.1	-3%	2	-1	-0.5	-5	1	3	0.6	0.8
#28 Cc1ccc(OCC(=O)N/N=C\c2ccc(O)c([N+](=O)[O-])c2)c([N+](=O)[O-])c1
  -3.9	3%	12	-1	-1.8	-14	-2	27	1.8	0.9
#29 CC(C)(C)NC(=O)C12CCC(C)(c3nc4ccccc4nc31)C2(C)C (stereo unspecified)
  .	1%	.	.	.	1	-7	-51	-2.4	1.5
#30 Cc1ccc(NC(=O)N2CCN(C)CC2)cc1NC(=O)N1CCN(C)CC1
  -15	31%	10	4	-3.0	-2	0	0	-2.0	0.3

(more compounds)
Every second line gives: AF4-AF9 inh	Vif TR-FRET	Ecoli rRNA inh	Ecoli rRNA inh OD600	Ecoli rRNA inh RFP	T cruzi inh	Beta apoptosis	Calb FLC	RanGTP-Imp inh	A1 inh
#31 COc1ccc(/C=N/NC(=O)C2C3CCCCC32C)cc1OC (stereo unspecified)
  2.0	-5%	-13	-11	1.5	4	-1	-10	-3.4	0.5
#32 N#C/C(=C\c1ccco1)C(=O)Nc1ccc(S(N)(=O)=O)cc1
  -1.1	3%	4	7	8.6	-10	-3	-6	-0.1	0.2
#33 C(=N/N1CCN(c2ccccc2)CC1)/c1ccncc1
  7.3	4%	7	3	-2.1	15	4	0	?	-0.8
#34 O=C1C(C2=NC(C(=O)O)C3C(=O)N(c4ccc(Cl)cc4)C(=O)C23)=C(O)c2ccccc21 (stereo unspecified)
  .	1%	.	.	.	-10	-1	-11	-1.1	-1.5
#35 Nc1ccc(N=Nc2ccccc2)c2ccccc12
  9.8	-4%	4	12	-0.2	15	9	17	1.3	-0.5
#36 CC(OC(=O)c1cccc(-n2cnnn2)c1)C(=O)c1ccccc1 (stereo unspecified)
  -26	-6%	1	3	0.6	-3	-9	7	-3.3	0.5
#37 Cc1ccc(S(=O)(=O)N/N=C2/CC(c3ccccc3)Oc3ccccc32)cc1[N+](=O)[O-] (stereo unspecified)
  .	1%	.	.	.	1	3	4	-2.7	0.1
#38 Cc1cc(C)c(C#N)c(SCC(=O)Nc2ccccc2C(N)=O)n1
  .	-7%	.	.	.	10	-8	-2	-15	-0.2
#39 CCOC(=O)C1C(=O)Nc2nc(C)nn2C1c1ccccc1 (stereo unspecified)
  .	-4%	.	.	.	-3	4	5	3.2	0.0
#40 S=C1NC[C@H](Cc2cccc3ccccc23)N1CC1CCCCC1
  6.7	.	-10	-25	24	-16	8	-14	-0.9	0.1
#41 O=C(NCc1cccs1)C1CCCN(S(=O)(=O)c2cnc[nH]2)C1 (stereo unspecified)
  0.5	-2%	6	8	-4.4	0	.	-3	2.8	.
#42 Cc1cc2oc(=O)cc(CN3CCc4ccccc43)c2cc1Cl
  .	-10%	.	.	.	35	16	18	0.5	-0.2
#43 COc1ccccc1C(=O)NCCC(=O)Nc1ccncc1
  -25	-3%	12	11	0.1	-15	-3	-4	5.3	-0.9
#44 O=C(NCC(=O)N1CCN(C/C=C/c2ccccc2)CC1)c1ccc(Br)cc1
  6.8	.	-10	-18	-0.7	.	7	.	.	0.0
#45 CCN=C1S/C(=C/c2ccc(-c3ccc(Cl)cc3C(=O)O)o2)C(=O)N1CC
  0.1	.	-3	-10	1.0	-6	-11	24	?	0.4
#46 COC(=O)c1ccc(C(=O)OC)c(NC(=S)N2CCC(C)CC2)c1
  .	-11%	.	.	.	-4	-13	-10	?	-0.8
#47 COc1cc(C(=O)N/N=C(\C)c2ccc(NC(=O)Cc3ccccc3)cc2)ccc1O
  -0.5	.	-8	-4	-0.3	.	-5	-11	.	0.9
#48 CCCn1nnnc1NCc1ccccc1Cl
  -1.3	.	2	7	-2.4	-3	0	0	-0.5	0.3
#49 CNC(=O)[C@@]1(Cc2ccccc2)C=C[C@@H](C)N1C(C)=O
  -2.4	.	18	12	7.7	-18	-4	2	3.2	0.5
#50 O=C(NC1CCCCC1)c1cc(-c2ccccc2O)on1
  -1.9	2%	13	11	6.7	-24	2	-3	2.4	-1.9
#51 O=C(Nc1ccc(N2CCCC2=O)cc1)c1cccc(F)c1
  -55	-3%	4	4	-1.2	13	-1	0	-1.0	-4.9
#52 Cc1c(CC(=O)NCC(=O)NCC(=O)O)c(=O)oc2cc3c(cc12)CCC(C)(C)O3
  -1.2	14%	1	2	1.6	-2	-1	-6	3.5	1.1
#53 CC1CCc2c(sc3ncn(CC(=O)N4CCCCC4)c(=O)c23)C1 (stereo unspecified)
  -13	0%	5	23	-0.6	15	-4	-23	-0.2	0.4
#54 O=C(COc1ccccc1Cl)NCCC1=CCCCC1
  .	.	.	.	.	22	-3	-2	-3.0	2.7

Quoted at random: four compounds from above, in no set order.
Every second line gives: AF4-AF9 inh	Vif TR-FRET	Ecoli rRNA inh	Ecoli rRNA inh OD600	Ecoli rRNA inh RFP	T cruzi inh	Beta apoptosis	Calb FLC	RanGTP-Imp inh	A1 inh
#42 Cc1cc2oc(=O)cc(CN3CCc4ccccc43)c2cc1Cl
  .	-10%	.	.	.	35	16	18	0.5	-0.2
#54 O=C(COc1ccccc1Cl)NCCC1=CCCCC1
  .	.	.	.	.	22	-3	-2	-3.0	2.7
#34 O=C1C(C2=NC(C(=O)O)C3C(=O)N(c4ccc(Cl)cc4)C(=O)C23)=C(O)c2ccccc21 (stereo unspecified)
  .	1%	.	.	.	-10	-1	-11	-1.1	-1.5
#35 Nc1ccc(N=Nc2ccccc2)c2ccccc12
  9.8	-4%	4	12	-0.2	15	9	17	1.3	-0.5

Assay outcomes (PubChem BioAssay)
